# Screening results (PubChem BioAssay)
# Sa helicase inh – inhibitors of S. aureus replicative helicase, primary screen, biochemical, fluorescence unwinding readout. replicative DNA helicase (DnaC/DnaB), Staphylococcus aureus. purified S. aureus helicase, fluorescence unwinding assay; about half of the hits fall short of the stated cut. inhibition, %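 (tested at about 80 µM)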. 120,000 tested, 0.05% active;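 active = both duplicates at 50% or more, or one of them with a favoured structure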;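 also: 0% = mean of negative control wells and 100% = mean of positive control wells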
# MgrA DNA FP – S. aureus MgrA activity modulators, primary screen, biochemical, S. aureus Newman, fluorescence polarization; 84,000 tested, 0.13% active; MgrA-DNA binding; AID 602314, 2012; inhibition, %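 (about 10 µg/mL by stock and volumes)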;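 active = above 50% in either of two replicates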;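 also: 0% = protein plus DNA without compound and 100% = DNA alone without protein; higher means less MgrA bound to DNA so lower polarization; one replicate is shown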
# Starred values were filed as active, the others as inactive; / = not tested or not shown.
SMILES,Sa helicase inh,MgrA DNA FP
CN1C(=O)CC(c2ccccc2)S(=O)(=O)c2ccccc21 (stereo unspecified),-7,2.2
N#Cc1ccccc1COC(=O)c1ccccn1,-3,-1.9
O=C(CSc1nccc(=O)[nH]1)NC1CCCCCC1,2,/
Nc1nc(=S)n2c(n1)oc1ccccc12,15,-0.2
CCOC(=O)N1CCN(S(=O)(=O)c2cccc3ccc(C)nc23)CC1,11,-0.2
Cc1nc(-c2cccs2)no1,/,-1.1
O=C(Cn1cnc2c(nc3n2CCCCC3)c1=O)N1CCCCCC1,-18,/
Cc1ccc2nc(-c3ccc(NS(C)(=O)=O)cc3)sc2c1,-10,/
CCOc1cc2c(cc1OCC)C1C(C(=O)N(C)Cc3ccccc3)c3ccccc3C(=O)N1CC2 (stereo unspecified),5,0.8
COc1ccc(C2N(c3ccc(OC)cc3)C(=O)C3CCCN32)cc1 (stereo unspecified),-10,/
Cc1nn(-c2ccccc2)c2sc(-c3n[nH]c(=S)o3)cc12,-9,/
Cc1[nH]nc2nc(C(F)(F)F)cc(C(F)(F)F)c12,-31,1.0

# Single records (already shown). Values in the order: Sa helicase inh	MgrA DNA FP
# Shown for `O=C(Cn1cnc2c(nc3n2CCCCC3)c1=O)N1CCCCCC1` → -18	/
# Shown for `Nc1nc(=S)n2c(n1)oc1ccccc12` → 15	-0.2
# Shown for `Cc1nc(-c2cccs2)no1` → /	-1.1
# Shown for `CN1C(=O)CC(c2ccccc2)S(=O)(=O)c2ccccc21` (stereo unspecified) → -7	2.2
# Shown for `Cc1nn(-c2ccccc2)c2sc(-c3n[nH]c(=S)o3)cc12` → -9	/

# (list continues)
SMILES,Sa helicase inh,MgrA DNA FP
c1ccc(Cn2ncc3c(N4CCCCC4)ncnc32)cc1,6,-0.3
CC(C)(CO)NC(=O)C(c1ccccc1)c1ccccc1,-12,/
COc1ccc(N2CCN(CCCNC(=O)C3=C(C)C(=O)OC34CCCCC4)CC2)cc1,7,/
Cc1ccc(N2C(=O)CC(Sc3nc(C)c(C)c(C)c3C#N)C2=O)cc1 (stereo unspecified),/,-2.7
CC(CC(=O)N1CCN(C(=O)c2ccccc2)CC1)c1ccccc1 (stereo unspecified),-2,/
O=C(CSc1nc2ccccc2[nH]1)NC1CCS(=O)(=O)C1 (stereo unspecified),-8,/
COc1ccc(CNCCN2CCOCC2)cc1,6,0.3
N#Cc1c(-c2ccccc2)cc(-c2cccs2)nc1SCC(O)CN1CCOCC1 (stereo unspecified),-6,/
COC(=O)c1cc(-c2ccccc2)sc1NC(=O)C1CCCO1 (stereo unspecified),9,0.6
CCOC(=O)C1=NNCC1C(=O)OCC (stereo unspecified),4,0.3
CC(C)c1c(O)c2ccccc2[nH]c1=O,5,0.6
COC(=O)c1c(C)[nH]c(C(=O)O)c1C,-7,/

# The list goes on, overlapping the part above by 2 compounds.
SMILES,Sa helicase inh,MgrA DNA FP
CC(C)c1c(O)c2ccccc2[nH]c1=O,5,0.6
COC(=O)c1c(C)[nH]c(C(=O)O)c1C,-7,/
Cc1cc2ncc(C(=O)c3ccccc3O)cn2n1,/,1.9
CSc1nc(-c2ccccc2)nc(Sc2ccccn2)c1C#N,22,/
CCOC(=O)C(C)Sc1nnc(Cn2c(=O)sc3ccccc32)n1-c1cccc(Cl)c1 (stereo unspecified),15,-6.8
Cc1nn(-c2ccccc2)c(Cl)c1C(=O)NCCN(C)C,-13,-0.9
O=C(Nc1ccc(C(F)(F)F)cc1)NC1CCN(c2ncc(C(F)(F)F)cc2Cl)CC1,/,-1.1
Cc1ncc(CSCC(=O)Nc2cc(C(F)(F)F)ccc2Cl)c(CO)c1O,/,0.1
CCCCOC(=O)Oc1cc2oc(=O)sc2cc1Br,27,/
CCN(C(=O)CN1C=NS(=O)(=O)c2ccccc21)c1ccccc1,3,/
CCCCc1cc(=O)oc2cc(C)cc(O)c12,2,1.7
CS/C(N)=N/N=C/c1ccc2c(c1)OCO2,/,-1.3
Cc1ccc(-c2nn(C)c(=O)c3ccccc23)cc1S(=O)(=O)N1CCCC1,4,/
CCOCC(=O)Nc1nnc(CC)s1,3,1.0
N=C1C(c2nc3ccccc3c(=O)[nH]2)=C(O)CN1c1ccccc1,4,4.2
CCOC(=O)CNc1nc(C(C)(C)C)nc2c1nnn2Cc1ccccc1,9,-2.2
CCOc1ccc2nc(N3CCCC(C(=O)NCCCN4CCN(CC)CC4)C3)sc2c1 (stereo unspecified),23,/
COc1ccc(C2=NN(S(C)(=O)=O)C(c3ccc(C)cc3)C2)cc1 (stereo unspecified),-1,3.8
C=CCN=CC1=C(O)CCCC1=O,-3,/
O=C(Nc1cccc(C(=O)NC2CC2)c1)c1cccc(-n2cccc2)c1,7,/
Cc1cccc(C(=O)OCC(=O)Nc2ccc(Cl)cc2)c1,-4,1.6
CNC(=S)N/N=C/c1ccc(OC)c(Br)c1,/,0.5
CCC(=O)N1c2ccccc2NC2=C(C(=O)CC(C)(C)C2)C1c1ccc(-c2ccc([N+](=O)[O-])cc2)o1 (stereo unspecified),/,2.3
CCOC(=O)c1ccc(N2CCN(c3ccccc3F)CC2)c(NC(=O)Nc2ccc(CC)cc2)c1,8,-3.3
Cc1cc(C)n2c(SCCN3C(=O)c4ccccc4C3=O)nnc2n1,11,/
O/N=C(/c1ccccc1)c1ccccn1,-14,2.1
COc1cc(OC)c2ccc(=O)oc2c1,/,2.0
CC(C)(C)C(=O)CSc1nnc(-c2ccncc2)o1,19,/
CC1(c2ccc(Cl)cc2Cl)OCC(Cn2cncn2)O1 (stereo unspecified),8,-3.7
CC1Cc2ccccc2N1C(=O)COC(=O)/C=C/c1ccc2c(c1)OCO2 (stereo unspecified),4,/
O=C(O)c1sc(=S)sc1C(=O)O,10,/
Cc1ccc(OCc2nnc(SCC(=O)Nc3cccc4c3OCO4)n2-c2ccccc2)c2c1CCC2,/,1.4
CC(C)Cn1c(SCC(=O)c2ccc3c(c2)NC(=O)CO3)nc2ccccc2c1=O,-4,/
COc1ccc(C(CNC2CC3CC=CC32)N(C)C)cc1OC (stereo unspecified),1,/
O=C(O)c1cccc2cccc(S(=O)c3cccc4cccc(CO)c34)c12 (stereo unspecified),/,-3.6
CCC(Sc1nc(N)cc(=O)[nH]1)C(=O)NC(C)c1ccccc1 (stereo unspecified),11,-3.4
CCc1ccc(OC(C)C(=O)N(Cc2ccccc2)C2CCS(=O)(=O)C2)cc1 (stereo unspecified),11,0.6
COc1ccc2c(c1)N(C(=O)NC1CCCCC1)C(C)(C)CC2C (stereo unspecified),12,6.5
O=C(Nc1ccon1)c1cc(-c2ccccc2)nc2ccccc12,8,1.2
O=C(OCC(=O)N1CCCC1)c1ccc(Oc2ccccc2)cc1,1,0.6
Cc1ccccc1-n1c(=O)cc(NCCCn2ccnc2)[nH]c1=O,4,/
c1ccc(N=c2scc(-c3cccs3)n2N=C2CCCC2)cc1,1,/
FC(F)(F)c1ccc2c(c1)[nH]c(=S)n2C1CC1,-12,1.8
CCOC(=O)c1c(C)c(-c2ccccc2)n(CC(=O)NCc2cccs2)c1C,-1,/
COCC(C)n1c(C)cc(C(=O)COC(=O)c2cc(-c3ccco3)nc3ccccc23)c1C (stereo unspecified),8,/
O=C(NCC(=O)N1CCN(c2cccc(C(F)(F)F)c2)CC1)c1ccccc1,-3,/
CCC(=O)c1ccc(OC(=O)C(C(C)C)N2C(=O)c3ccccc3C2=O)cc1 (stereo unspecified),0,/
CNC(=O)Nc1ccc(C(=O)O)cc1,0,-4.2
CCCC(=O)Nc1nc(-c2ccc(F)cc2)cs1,-16,/
CCN(CC)c1nc2n(c(=O)n1)CCO2,-4,1.7
N#Cc1ccc(C(=O)N2CCCSC2=NCCc2ccccc2)cc1,-7,/
FC(F)(F)c1ccc(-c2noc(CN3CCCC3)n2)cc1,0,-0.7
O=C(Nc1nc(-c2cc3ccccc3oc2=O)cs1)C1CC1,-17,/
CC1(C)Oc2ccc(NC(=O)C3(c4ccccc4)CCCC3)cc2O1,9,-1.5
CC(C)CNc1nc2c(c(=O)[nH]c(=O)n2C)n1CC(C)O (stereo unspecified),12,/
Clc1ccc(C2=CC(c3ccccc3)n3ncnc3N2)cc1 (stereo unspecified),7,-0.7
Nn1c(Cc2ccccc2F)nnc1SCc1cc(=O)n2ccsc2n1,6,/
CC(C)(C)C(=O)OCC(=O)c1ccc(C(F)(F)F)cc1,/,-1.8
CCOCC(=O)Nc1ccccc1C(C)C,-2,-0.5
Cc1ccc(-n2nc(C)c(C3(O)C(=O)N(C)c4ccccc43)c2N)cc1 (stereo unspecified),-11,/
FC(F)(F)c1nc2ccc(Oc3ccc4nc(C(F)(F)F)[nH]c4c3)cc2[nH]1,16,/
CC(C)CC(C)c1cc(N)nc2nc3ccccc3n12 (stereo unspecified),-19,/
# (more compounds)
SMILES,Sa helicase inh,MgrA DNA FP
CC1CCCC/C1=N/NC(=O)CNc1ccc(Cl)cc1 (stereo unspecified),-13,0.9
O=C(O)c1ccc(C(F)(F)F)cc1,-16,3.0
COCc1cc(C)nc2n[nH]c(N)c12,16,-1.8
CN(C)C(=O)Nc1cnc2ccccc2c1,-2,-1.1
O=C(Cc1ccccc1)Nc1ccc(-c2nnc(-c3ccco3)o2)cc1,9,/
N#Cc1cccc(C#N)c1-n1cccc1,-2,/
Cc1onc(-c2c(Cl)cccc2Cl)c1C(=O)NC(=S)N1CCN(c2ccccn2)CC1,-22,/
COc1ccc(/C=C/C(=O)NCC(C)C)cc1OC,5,0.6
O=C(CNCc1ccco1)Nc1ccc(Oc2ccccc2)cc1,5,-2.9
Cc1cc(C(=O)N2CCc3ccccc3C2)c2ccccc2n1,7,/
COc1ccc(NC(=O)C(C)n2c(=O)cc(C)c3c(C)nn(-c4ccccc4)c32)cc1OC (stereo unspecified),20,/
Cc1cc(C)c2oc(-c3ccc(NC(=O)c4ccc5c(c4)OCCO5)cc3)nc2c1,/,-0.9
Cc1ccccc1OCc1nc(C#N)c(NC(C)c2ccccc2)o1 (stereo unspecified),11,-0.3
O=C(O)c1ccc(COc2ccc(Cl)cc2CO)cc1,-9,/
Cc1nn(-c2ccccc2)c2c1N(C(=O)CCC(=O)N1CCOCC1)CCS2,-2,/
CCN1CCCC1CN1CNC(=S)NC1 (stereo unspecified),/,-1.5
COC(=O)c1cc(=O)c2cccc(OC)c2[nH]1,/,-0.8
c1ccc(C(c2ccccc2)N2CC(Sc3nc4ccccc4s3)C2)cc1,/,-2.9
CN(C)c1ccc(/C=C(\C#N)S(=O)(=O)c2cccs2)cc1,/,32
CS(=O)c1sc(Cl)c2c1C(=O)CCC2 (stereo unspecified),/,-0.4
O=C(O)C1C2CCCCC21 (stereo unspecified),1,-3.6
O=C(CN1c2cccc3cccc(c23)S1(=O)=O)NCc1ccccc1,8,0.0
COC(=O)N/N=C/c1cccs1,-35,/
COc1cc(/C=C/C2=NC(=O)C(C)(C)O2)ccc1O,-27,-0.5

# Shown with each value named: entries from further up
SMILES: c1ccc(C(c2ccccc2)N2CC(Sc3nc4ccccc4s3)C2)cc1
  Sa helicase inh = / | MgrA DNA FP = -2.9

SMILES: CN(C)c1ccc(/C=C(\C#N)S(=O)(=O)c2cccs2)cc1
  Sa helicase inh = / | MgrA DNA FP = 32

SMILES: CS(=O)c1sc(Cl)c2c1C(=O)CCC2 (stereo unspecified)
  Sa helicase inh = / | MgrA DNA FP = -0.4

SMILES: O=C(O)C1C2CCCCC21 (stereo unspecified)
  Sa helicase inh = 1 | MgrA DNA FP = -3.6

# Next part.
SMILES,Sa helicase inh,MgrA DNA FP
CC1CC(c2ccccc2)n2ncnc2N1C(=O)c1ccccc1 (stereo unspecified),4,-4.4
Cc1cc(C)c(/C=N/NC(N)=O)c(C)c1/C=N/NC(N)=O,6,-0.6
c1csc(-c2ccn[nH]2)c1,/,-0.3
Cc1cccc(N2CCN(C(C)c3nc4ccccc4c(=O)[nH]3)CC2)c1C (stereo unspecified),-3,/
CC(C)c1ccc2c(c1)c1c3n2CCN(CC(N)=O)C3CCC1 (stereo unspecified),20,/
O=C(Cc1ccc(Cl)cc1)Oc1ccc2c(c1)OCO2,-15,/
O=c1c2cc(N3CCOCC3)ccc2nc(SCc2ccc(F)cc2)n1CCc1ccccc1,3,3.9
Cc1ccccc1N1C(=O)C(Oc2ccc(Cl)cc2)C1CNCC1CCCO1 (stereo unspecified),6,/
O=C(OCC(=O)N1CCN(c2ccccc2)CC1)c1ccc(-c2ccc(O)cc2)cc1,-4,/
CC(=O)N1C(=S)NC(=O)/C1=C\c1ccccc1Cl,-2,0.3
CCOc1ccc(-c2c(C#N)c(N)nc(SCC(=O)c3ccccc3)c2C#N)cc1,/,2.7
O=C(CS(=O)(=O)Cc1ccccc1)Nc1ccccn1,-18,0.9
O=C(N/N=C/CSc1nc2ccccc2o1)c1ccccc1,1,/

# These rows are one share of the data. The share of hits here may be higher or lower than overall.
